Screening data from PubChem BioAssay.
KCNQ2 block – KCNQ2 channel blockers in CHO-K1 cells – cell-based, FluxOR thallium flux, B-score, primary screen (AID 2156). 1.1% of 310,000 active. B-score at 10 µM. 20 min; hits give low values; only compounds with negative scores are shown here; some inactives read as strong as hits. O88943;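 active = fluorescence ratio B-score at most minus 3 library SDs, with starting brightness B-score within 2 library SDs, cut at about -5.5 in these data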
Target sequence (O88943 whole entry, looked up): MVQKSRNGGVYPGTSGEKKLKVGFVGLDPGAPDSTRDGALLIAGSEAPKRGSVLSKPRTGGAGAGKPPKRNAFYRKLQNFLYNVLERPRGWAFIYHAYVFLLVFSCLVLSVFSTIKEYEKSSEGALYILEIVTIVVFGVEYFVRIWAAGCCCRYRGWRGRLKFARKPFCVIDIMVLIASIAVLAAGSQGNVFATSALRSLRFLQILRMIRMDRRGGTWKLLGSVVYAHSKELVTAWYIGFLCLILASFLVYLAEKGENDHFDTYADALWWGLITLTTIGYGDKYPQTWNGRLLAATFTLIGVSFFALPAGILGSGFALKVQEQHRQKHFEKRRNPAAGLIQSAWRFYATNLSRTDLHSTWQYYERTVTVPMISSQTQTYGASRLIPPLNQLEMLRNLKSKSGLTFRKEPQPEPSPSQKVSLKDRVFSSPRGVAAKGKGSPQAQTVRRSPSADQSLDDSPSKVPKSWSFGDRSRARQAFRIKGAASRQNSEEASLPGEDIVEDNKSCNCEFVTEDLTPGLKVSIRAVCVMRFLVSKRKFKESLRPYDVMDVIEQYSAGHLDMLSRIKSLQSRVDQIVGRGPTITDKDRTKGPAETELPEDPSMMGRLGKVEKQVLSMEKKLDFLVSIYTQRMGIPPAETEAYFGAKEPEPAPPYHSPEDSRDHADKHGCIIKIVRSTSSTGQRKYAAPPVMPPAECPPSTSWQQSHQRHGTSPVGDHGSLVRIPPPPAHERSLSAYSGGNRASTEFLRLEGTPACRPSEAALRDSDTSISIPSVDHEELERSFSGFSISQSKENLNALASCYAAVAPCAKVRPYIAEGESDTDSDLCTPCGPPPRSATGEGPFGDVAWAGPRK
KCNQ2 block baseline – also measured in KCNQ2 block; calls as there; B-score; measured here: initial fluorescence intensity artifact check;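 brightness before thallium and not channel activity; 0 = typical well and far values either way flag optical interference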
* hit, by the source's call; i = inactive.

Values in the order – KCNQ2 block | KCNQ2 block baseline
CC(C(=O)NN)c1ccc([N+](=O)[O-])cc1 (stereo not given)
    i | 0.36
S=c1[nH]nc(COc2ccccc2)n1/N=C/c1ccc(Cl)c(Cl)c1
    i | -0.06
COc1cc(/C=C2\SC(c3ccccc3)=NC2=O)cc(Cl)c1O
    i | -2.6
COc1ccc(C)cc1NC(=O)CCNC(=O)Cn1ccc2ccccc2c1=O
    i | -0.78
Oc1ccc(Cl)cc1/C=C/c1ccc2cccc(O)c2n1
    i | 0.42
Cc1cc(NC(=O)COC(=O)CCS(=O)(=O)c2cc(Cl)ccc2Cl)no1
    i | 0.75
O=C(CCC(=O)N1CCOc2ccc(Cl)cc21)N1CCN(c2ccccn2)CC1
    i | 0.35
CN(C)S(=O)(=O)c1ccc(Cl)c(NC(=O)COC(=O)c2cc(-c3ccccc3)nc3ccccc23)c1
    i | -0.17
O=C1N=c2ccccc2=C1c1sc(=S)n(NC(=O)c2ccccc2)c1O
    i | -1.9
COCCNC(=O)Cn1nc(Cc2ccncc2)c2ccccc2c1=O
    i | -0.04
CC(C)(C)NC(=O)C(Cc1ccccc1)N1C(=O)c2ccccc2C1=O (stereo not given)
    i | 1.5
Nc1ccccc1-c1ccccc1N
    i | 0.86
O=C(CSC1=NS(=O)(=O)c2ccccc2N1)Nc1nccs1
    i | -0.22
CCOc1ccccc1Oc1coc2cc(O)ccc2c1=O
    i | 0.59
Cc1ccc(S(=O)(=O)c2nc(-c3ccco3)oc2N2CCC(C)CC2)cc1
    i | 2.2
Cc1ccc2nc(-c3ccccc3)c(NC(=O)c3ccco3)n2c1
    i | 0.16
Cc1cc(-c2ccc(Cl)cc2)n2nc(C)cc2n1
    i | -1.4
Cc1cc(C)c2[nH]c(=O)c(C(c3nnnn3Cc3ccc4c(c3)OCO4)N3CCC(C)CC3)cc2c1 (stereo not given)
    i | -0.21
Cn1cccc1C(=O)N1CCN(S(=O)(=O)c2ccccc2)CC1
    i | 0.41
Cc1cc(NC(=O)CC(C)C)c(=O)n(Cc2ccccc2F)c1
    i | -0.05
N#Cc1nc(-c2ccc(Cl)cc2)oc1NCCc1ccccn1
    i | -0.06
O=c1c(-c2nnc(SCc3ccc(Cl)cc3)o2)cccn1Cc1ccccc1
    i | -0.29
O=C(NNC(=O)c1ncc(Cl)c(Cl)c1Cl)c1ccc(F)cc1
    i | 0.24
O=C(CNS(=O)(=O)c1ccc2ccccc2c1)OCc1csc(-c2ccccc2)n1
    i | -0.67
CCOc1ccccc1C(=O)Nc1cc(C)ccc1NC(=O)c1ccco1
    i | 2.4
Cn1nnnc1SCC(=O)NC1CCCc2ccccc21 (stereo not given)
    i | -0.56
COc1cc(/C=N/NC(=O)CCc2c(C)n[nH]c2C)cc(OC)c1OC
    i | -1.8
O=C(NCc1ccc2c(c1)OCO2)c1cc(-c2cc(Cl)ccc2O)n[nH]1
    i | 0.61
C=C(C)COc1ccc(-c2nc(N)nc(C(F)(F)F)c2-c2ccc(OC)cc2)c(O)c1
    i | 0.96
CNC(=O)c1[nH]cnc1C(=O)Nc1ccccn1
    i | 2.9

Next section; the last three above are carried over.
Values in the order – KCNQ2 block | KCNQ2 block baseline
O=C(NCc1ccc2c(c1)OCO2)c1cc(-c2cc(Cl)ccc2O)n[nH]1
    i | 0.61
C=C(C)COc1ccc(-c2nc(N)nc(C(F)(F)F)c2-c2ccc(OC)cc2)c(O)c1
    i | 0.96
CNC(=O)c1[nH]cnc1C(=O)Nc1ccccn1
    i | 2.9
Cc1ccccc1NC(=O)CCC(=O)N/N=C/c1cccnc1
    i | 1.2
COc1ccc(C(=O)C2CCCN(C(=O)c3cccs3)C2)cc1F (stereo not given)
    i | 4.2
CCc1ccc(OC)c(S(=O)(=O)NCCOc2ccccc2)c1
    i | 0.18
Cc1oc(C(=O)O)cc1COc1cccc2ccccc12
    i | 0.18
CCOC(=O)c1c(NC(=O)CSc2nnc(-c3cccc(C)c3)n2CC)sc(C(C)=O)c1C
    i | 3.1
O=C(CCC1CCCC1)Nc1cc(C(F)(F)F)ccc1N1CCOCC1
    i | 1.2
CCC(C)NS(=O)(=O)c1cc2c3c(c1)CCN3C(=O)CC2 (stereo not given)
    i | -1.1
O=C(CC1CCCCC1)OCn1nnc2ccccc2c1=O
    i | 0.06
COc1ccc(OC)c(CNS(=O)(=O)c2cc(CN3C(=O)c4cccnc4C3=O)ccc2OC)c1
    i | -0.87
COC(=O)/C=C1/SC(=NC(=O)c2cccc([N+](=O)[O-])c2)NC1=O
    i | -0.26
CCNc1nc(OCCNC(C)=O)nc(N(C)C)n1
    i | 2.3
CCO[C@H]1OC(C(=O)NCc2ccccc2)=C[C@@H](c2ccc(Br)cc2)[C@@H]1CCCO
    i | 0.06
Cc1ccccc1NC(=O)Cc1nc(COC(=O)c2cc([N+](=O)[O-])ccc2N)cs1
    i | -0.32
O=C(CSc1ccc(-c2ccc(Cl)cc2)nn1)N1CCCc2ccccc21
    i | 1.8
COc1ccc2cc(C(=O)N3CCOCC3)sc(=O)c2c1OC
    i | -0.66
CCOc1ccc(C(=O)COC(=O)C2CCN(c3ccc(C(F)(F)F)cn3)CC2)cc1
    i | -0.23
COc1ccc(CCNC(=O)c2ccc3c(c2)N(Cc2ccccc2)CCS3)cc1OC
    i | -0.17
Cc1nn(-c2ccccc2)c(C)c1NC(=O)COC(=O)/C=C/c1ccccc1
    i | 0.15
COc1ccc(Nc2nc3ccccc3nc2-n2nc(C)cc2C)cc1
    i | 1.1
CCOc1ccc(C(C#N)N2CCOCC2)cc1OC (stereo not given)
    i | 0.18
O=C1c2ccc([N+](=O)[O-])cc2C(=O)N1c1c[nH]c(=O)[nH]c1=O
    i | 1.2
CCN1CCN(C(=O)c2nn(C)c3c2CS(=O)(=O)c2ccccc2-3)CC1
    i | -0.02
CC(=O)c1ccc(N2C(=O)NC3(CCCCC3)C2=O)cc1
    i | 0.68
COc1ccccc1Cn1c(=S)[nH]c2cc(C(=O)NCCCN3CCOCC3)ccc2c1=O
    i | -0.98
CCOC(=O)c1ccccc1NC(=O)COC(=O)CCC(=O)c1ccc(C)cc1
    i | 0.68
CC1Cc2ccccc2N1C(=O)Cn1nnc(-c2ccccc2NC(=O)C2CCC2)n1 (stereo not given)
    i | 0.13
O=C(NC1CCS(=O)(=O)C1)C1CCCC1 (stereo not given)
    i | -3
COc1ccc(NC(=O)CSc2nccn2Cc2ccc(F)cc2)c(OC)c1
    i | 0.17
CCOc1ccc(/C=N/Nc2cc(=O)n(C)c(=O)n2C)cc1
    i | -0.01
CCOc1ccc(CCNC(=O)c2ccccc2OCc2c(C)noc2C)cc1OCC
    i | 0.34

Looked up one by one from the entries so far, 5 records:
Values in the order – KCNQ2 block | KCNQ2 block baseline
Cc1oc(C(=O)O)cc1COc1cccc2ccccc12
    i | 0.18
CC(=O)c1ccc(N2C(=O)NC3(CCCCC3)C2=O)cc1
    i | 0.68
CCOC(=O)c1c(NC(=O)CSc2nnc(-c3cccc(C)c3)n2CC)sc(C(C)=O)c1C
    i | 3.1
O=C(CCC1CCCC1)Nc1cc(C(F)(F)F)ccc1N1CCOCC1
    i | 1.2
Cc1nn(-c2ccccc2)c(C)c1NC(=O)COC(=O)/C=C/c1ccccc1
    i | 0.15

Further compounds
Values in the order – KCNQ2 block | KCNQ2 block baseline
CCN(C(=O)/C=C/c1ccc(OC)cc1)C1CCS(=O)(=O)C1 (stereo not given)
    i | 0.25
O=C(O)c1ccc(CSc2nc3ccccc3c(=O)n2-c2ccccc2)cc1
    i | 0.16
CC(NC(=O)c1ccccc1SCC(=O)N1CCCC1)c1ccccc1 (stereo not given)
    i | 0.02
Cc1ccc(N=Cc2nc(-c3ccco3)oc2O)cc1
    i | 1.1
CCOC(=O)Cn1c(=NC(=O)CSC(C)=O)sc2cc(F)ccc21
    i | 0.34
CN(CCC1CCOCC1)C(=O)c1cc(COc2c(F)cccc2F)on1
    i | -0.57
Cn1c(SCC(N)=O)nnc1-c1cnccn1
    i | -0.55
O=S(=O)(NC1CCCCC1)c1cccc2nsnc12
    i | 0.35
CCOC(=O)c1nn(-c2cccc(C)c2)c2nc(-c3ccccc3)c(C#N)c(=O)n12
    i | 1.8
COc1ccc(O[C@H]2C=C[C@@H](c3ccccc3)O[C@@H]2COC(=O)CC/C(C)=N/OC[C@@H](O)[C@H]2O[C@@H]3OC(C)(C)O[C@@H]3[C@H]2O)cc1
    i | -1.1
O=C(C1COc2ccccc2O1)N1CCn2c(nc3ccccc32)C1 (stereo not given)
    i | -0.67
CCC(C)NC(=O)CSc1nc2ccccc2c(=O)n1-c1c(C)n(C)n(-c2ccccc2)c1=O (stereo not given)
    i | 1.1
O=C(O)c1ccc2c(c1)ncn2C1CCCC1
    i | 0.73
O=C(CSc1nnc(-c2cccnc2)n1Cc1ccco1)c1ccc2ccccc2c1
    i | -2.1
Cc1cc(NC(=O)c2cc(-c3ccccc3Cl)nc3ccccc23)no1
    i | -0.11
COc1ccc(-c2nnc(-c3ccc(N)cc3)o2)cc1
    i | 0.81
COc1ccc(C(=O)N2CCN=C2SCc2cccnc2)cc1OC
    i | 2.5
CSCC[C@H](NC(=O)c1ccco1)c1nnc2ccccn12
    i | 0.03
CNS(=O)(=O)c1cccc(C(=O)NCC(c2cccs2)N(C)C)c1 (stereo not given)
    i | 0.21
Cc1cc(C)c(NC(=O)C2CCCCN2C)c(C)c1 (stereo not given)
    i | 1.7
CC(=O)c1ccc(NC(=O)C2CCCN(S(=O)(=O)c3ccc(-n4cnnn4)cc3)C2)cc1 (stereo not given)
    i | -0.62
O=C(Nc1cccc2cccnc12)c1ccccc1Cl
    i | -0.55
Cc1ccc(NS(=O)(=O)c2c(C)[nH]c(C)c2C(=O)N2CCCC2)cc1
    i | 0.05
Cc1ccc(N=C2NC(=O)CS2)c(C)c1
    i | 0.59
COC(=O)c1cccc(COC(=O)c2cccnc2SC)c1
    i | -0.68
C=CCN(C(=O)C1CSC2(C)CCC(=O)N12)c1nc(-c2ccccc2)cs1 (stereo not given)
    i | -0.54
COc1ccc(OC)c(S(=O)(=O)N2CCN(c3c(C)cccc3C)CC2)c1
    i | -1.8
CC(=O)OC1c2ccccc2C(=O)N1Cc1ccccc1Cl (stereo not given)
    i | -2.5
COCC1CCCN(Cc2nc(C(c3ccccc3)c3ccccc3)no2)C1 (stereo not given)
    i | -0.06
CCNS(=O)(=O)c1ccc(NC(=O)c2cccnc2)cc1
    i | 1.3
O=S(=O)(c1cccc(S(=O)(=O)N2CCC(n3nnc4ccccc43)CC2)c1)N1CCCCC1
    i | 1.4
COc1ccccc1C(=O)Nc1ccc2c(c1)nc(CCNC(C)=O)n2C
    i | 3.1
Cc1ccc(O)c(C(=O)/C=C/c2ccc3c(c2)OCCO3)c1
    i | 0.86
CCCCCCCCc1nc(SCC(C)=O)n[nH]1
    i | -0.72
Cc1nn(Cc2ccccc2)c(Cl)c1/C=C/C(=O)OCC(=O)N(C)C1CCS(=O)(=O)C1 (stereo not given)
    i | -0.72
COc1ccc(C2/C=C\CN(C(=O)CC(C)(C)C)CC(=O)N2Cc2ccc(F)cc2)cc1 (stereo not given)
    i | -0.79
COC(=O)c1cc(Br)c(=O)n(-c2ccccn2)c1
    i | -0.39
CCNC(=O)CSc1nnc(C2CC2)n1-c1ccccc1
    i | 0.98
CCOc1ccccc1C(=O)N(CCC(=O)OC)c1ccccn1
    i | -0.21
COc1ccc(NC(=S)N(CCc2c(C)[nH]c3ccc(C)cc23)Cc2cccs2)cc1
    i | 0.27
O=C(Nc1ccc(S(=O)(=O)Nc2ncccn2)cc1)c1ccc(Br)o1
    i | -0.11
CCc1ccc(NS(=O)(=O)c2ccc3[nH]cc(C(=O)N(C)Cc4ccco4)c(=O)c3c2)cc1
    i | 2.9
COCCNC(=O)CN(Cc1ccc(Cl)cc1)S(C)(=O)=O
    i | -1.1
COc1ccc2cc(-c3[nH]ncc3CN3CCCCO3)ccc2c1
    i | 0.47
CS(=O)(=O)N(CC(=O)N/N=C/c1cc([N+](=O)[O-])ccc1Cl)c1ccccc1
    i | 0.24
CC(C)OC(=O)CC(NC(=O)OC(C)(C)C)c1ccccc1 (stereo not given)
    i | -0.39
COc1ccc(-n2ncc(C(C)NS(=O)(=O)c3cccs3)c2C)cc1 (stereo not given)
    i | -0.15
CSc1nc(C)[nH]c(=O)c1C#N
    i | 0.04
O=C(CCNC(=O)c1ccc(Br)cc1)NCC1CCCO1 (stereo not given)
    i | -0.25
O=[N+]([O-])c1cccc(S(=O)(=O)NC2CC3CCC2C3)c1 (stereo not given)
    i | 1.7
CCn1c(O)c(N=Nc2ccc3ccccc3n2)c2ccccc21
    i | 18
O=[N+]([O-])c1ccc(S(=O)(=O)Nc2ccccn2)cc1
    i | 0.34
Cc1nn(-c2ccccc2)c(Cl)c1/C=N/NC(=O)c1ccccc1NS(=O)(=O)c1cccs1
    i | 1.9
CCOc1ccccc1N/C(=N/c1nc(C)cc(C)n1)NC(=O)Nc1ccc(Cl)c(Cl)c1
    i | -1.9
CN(C)NC(=O)c1ccc([N+](=O)[O-])s1
    i | -0.85
CCOC(=O)CSc1nnc(CSc2nc(N)c3c(C)c(C)sc3n2)n1-c1ccccc1
    i | -0.46
O=c1c2ccccc2nc2n1CCCCN2
    i | -0.66
CC1CCC2C(=O)N(c3cccc(C(=O)Nc4ccccc4Cl)c3)C(=O)C2C1 (stereo not given)
    i | -1.1
Cc1[nH]c2ccccc2c1/C=N/NS(=O)(=O)c1ccccc1
    i | 0.06
Cn1cccc1Cc1nnc(SCC(=O)NC2CCCCC2)n1-c1ccc(F)cc1
    i | 0.23
CC12CCCCC1N(O)C(=O)C(=O)N2O (stereo not given)
    i | -0.14
CC1CCCN(C(=O)CN2C(=O)c3ccccc3C2=O)C1 (stereo not given)
    i | -0.29

An excerpt. The share of hits here may be higher or lower than overall.
